# Screens (PubChem)
# Mtb betalactam – beta-lactam sensitization of Mtb H37Rv. M. tuberculosis H37Rv growth with meropenem, percent inhibition; hits of this screen are not shown here. inhibition, % at 25 µM. actives 0.27% (n = 330,000);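 active = about 74% or more and at least 40 points above the plate without the antibiotic, then above 30% in a dose series; inconclusive = first-round hits that could not be retested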;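 note: growth measured after seven days incubation then overnight dye step; 0% = bacteria only wells and 100% = bacteria with antibiotic; twin plates without the antibiotic show which effects depend on it; some results filed as inactive read as strong as hits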
# Numbers without * were called inactive; ? = inconclusive. Not all compounds are listed, so the mix of outcomes need not match the whole.
SMILES,Mtb betalactam
Cc1nc(SCc2nc3ccc(Br)cc3[nH]2)c2oc3ccccc3c2n1,60
Cc1ccc(NC(=O)c2cccc(C(F)(F)F)c2)cc1NC(=O)c1[nH]cnc1C(N)=O,-3
Clc1cc(Cl)c(Cl)c(Cl)c1Cl,20
CC1CCCC(C)N1C(=O)CN1c2cccc3cccc(c23)S1(=O)=O (stereo not given),-9
O=C(C[C@H]1C/C=C\C[C@@H](Cc2ccc(F)cc2)C(=O)OC[C@H]2CCCN2C1=O)NCCO,-4
Cc1ccc(S(=O)(=O)NC(=O)Nc2cccc(S(=O)(=O)N(C)C)c2)cc1,4
C=C[C@@H]1c2cccc(C)c2N(S(=O)(=O)c2ccc(C)cc2)[C@H](c2ccc(OC(C)=O)cc2)C1(C#N)C#N,3
O=C(C[C@H]1C/C=C\C[C@@H](NC(=O)OCC2c3ccccc3-c3ccccc32)C(=O)O[C@@H](c2ccccc2)CNC1=O)N[C@H](CO)Cc1ccccc1,-1
S=C(NCc1ccccc1)Nc1nccs1,92
Cc1occc1-c1nnc(SCC(=O)NC2CCCC2)n1C,-29
CCOc1ccccc1N1CCN(C(=O)NC(C)c2ccc(F)c(F)c2)CC1 (stereo not given),5
Cc1ccc2c(c1)C(=O)N1[C@H]3c4ccccc4OC[C@@H]3[C@H](c3ccccc3)[C@]1(C)C(=O)N2,61
CCCN(CC(=O)Nc1ccccc1C)C(=O)C1CC(=O)N(c2ccccc2C(C)CC)C1 (stereo not given),-10
CCC1=NN(C(=O)c2cccc([N+](=O)[O-])c2)C(O)(c2ccc(C)cc2)C1 (stereo not given),82
CC(OC(=O)c1cccc(NS(C)(=O)=O)c1)C(=O)Nc1ccc2c(c1)OCO2 (stereo not given),0
NS(=O)(=O)c1ccc(CCNC(=O)c2cnc(Cl)c(Cl)c2)cc1,-1
Cc1cc(=O)[nH]c(SCC(=O)Nc2ccc3c(c2)CCC3)c1C#N,-7
O=C(Nc1ccc(F)c(Cl)c1)C1CCCN(C2=NS(=O)(=O)c3ccccc32)C1 (stereo not given),-12
COc1cccc(C(=O)OCC(=O)N2CCc3ccccc3C2)c1OC,-2
Cc1ccc(C(=O)OC(C)C(=O)Nc2ccc(Cl)cn2)s1 (stereo not given),-2

# Taken from above.
# `CC(OC(=O)c1cccc(NS(C)(=O)=O)c1)C(=O)Nc1ccc2c(c1)OCO2` (stereo not given) in Mtb betalactam = 0
# `COc1cccc(C(=O)OCC(=O)N2CCc3ccccc3C2)c1OC` in Mtb betalactam = -2
# `Clc1cc(Cl)c(Cl)c(Cl)c1Cl` in Mtb betalactam = 20
# `S=C(NCc1ccccc1)Nc1nccs1` in Mtb betalactam = 92

# Carrying on.
SMILES,Mtb betalactam
COc1cccc(NC(=O)N2CCCC2C(=O)NC2CCCCC2)c1 (stereo not given),-5
N#CCCN(C(=S)NC(=O)C1CCCCC1)c1ccccc1F,-3
COc1cc2cc(CCCOC(=O)c3cccc(Br)c3)oc(=O)c2cc1OC,-6
CCC(CO)Oc1cc(NCc2cccc(O)c2)c2ncn(C(C)C)c2c1 (stereo not given),-3
CC1=CCC[C@H]2[C@H](C1)C(=O)C[C@@H](C)[C@]2(C)CC/C(=C/CO)CO,-2
CCOc1ccc(S(=O)(=O)N2CCN(C(=O)COc3ccc(Br)cc3)CC2)cc1,-2
Cc1ccc(S(=O)(=O)N2CCN(C(=O)COC(=O)CCOc3ccccc3)CC2)c(C)c1,7
Cc1ccc(NS(=O)(=O)c2cc(C(=O)N3CCN(CCO)CC3)ccc2C)cc1,-3
O=C(Nc1ccccc1)C(Cl)C(=O)c1ccccc1 (stereo not given),2
O=C(COC(=O)c1c(F)cccc1F)Nc1ccc(N2CCCCC2)cc1,5
CC(=O)Nc1ccc(NC(=O)c2ccc(S(=O)(=O)N(C)c3ccccc3)cc2)cc1,-5
O=C(COC(=O)c1ccc2ccccc2c1O)NCc1ccccc1,4
COC(=O)c1cc(Cl)cc2c(CCO)c[nH]c12,-6
Cc1nnc(SCC(=O)N(C)C2CCCCC2)n1C,-5
Cc1ccc(S(=O)(=O)NC2CC(C)(C)NC(C)(C)C2)cc1C,-9
O=C(Nc1ccc(-c2csc(Nc3ccc(Cl)cc3)n2)cc1)c1ccccc1,2
CC(C)Cc1nnc(NC(=O)c2ccc3c(c2)OCCO3)s1,10
C#CCOc1ccc(CNC[C@H]2O[C@@H](n3cnc4c(N)ncnc43)[C@H](O)[C@@H]2O)cc1,0
CN(CC(=O)Nc1ccc(S(=O)(=O)N2CCOCC2)cc1)Cc1ccc(F)cc1,2
COc1ccc(C(=O)COC(=O)CNC(=O)c2ccc(C)s2)c(OC)c1,0

# 3 records picked at random from the list so far:
SMILES,Mtb betalactam
S=C(NCc1ccccc1)Nc1nccs1,92
CC(OC(=O)c1cccc(NS(C)(=O)=O)c1)C(=O)Nc1ccc2c(c1)OCO2 (stereo not given),0
Cc1ccc(S(=O)(=O)NC2CC(C)(C)NC(C)(C)C2)cc1C,-9

# Following part.
SMILES,Mtb betalactam
CC(=O)Oc1cccc(C2C3=C(CC(C)(C)CC3=O)Nc3ccccc3N2C(C)=O)c1 (stereo not given),-3
C=C(C)C(=O)OCC(C)C,-4
CC(=O)c1cc2c(cc1NC(=O)Cn1cnc3ccccc3c1=O)OCO2,8
O=C(CN1CCC(O)(c2cccc(C(F)(F)F)c2)CC1)NCCc1ccccc1,3
O=C(CSc1cccc[n+]1[O-])Nc1cc(Cl)ccc1[N+](=O)[O-],-1
O=C(COC(=O)CSc1ccc([N+](=O)[O-])cc1)NCCC1=CCCCC1,-6
CC1CCN(C(=O)COC(=O)Cn2cnc3ccccc32)CC1,-3
CC(CC(=O)OCC(=O)NCc1ccc(Cl)cc1)c1ccccc1 (stereo not given),-8
O=C(COC(=O)C1COc2ccccc2O1)Nc1cccc(Cl)c1 (stereo not given),1
COc1ccc(OC)c(-c2nnc3n2N=C(c2ccc(OC)c(OCC4CC4)c2)CS3)c1,12
CC1CCCCN1C(=O)c1ccc(C(=O)Nc2ccc(F)cc2)cc1 (stereo not given),96
Oc1ccc(/C=N/Nc2ccnc3cc(Cl)ccc23)c(O)c1O,0
Cc1cc(C)n(CCCNC(=O)c2ccco2)n1,0
COc1ccc(NC(=O)C(C)Sc2nnc(C3CC3)n2C2CC2)cc1 (stereo not given),-9
O=C(c1ccc(-c2cc(O)c3ncccc3c2)cc1)N1CCNCC1,4
C[C@H](CO)N1C[C@H](C)[C@@H](CN(C)C(=O)Nc2ccc(C(F)(F)F)cc2)Oc2ccc(NS(=O)(=O)c3ccccc3)cc2C1=O,-8
O=C(COc1ccc(Cl)cc1)N/N=C/c1cccc2cccnc12,92
CN(Cc1ccccc1)C(=O)c1ccc(NC(=O)Cc2cccc(NC(=O)C3CCN(C(=O)C4CCCCC4)CC3)c2)cc1,-1
Cc1noc(C(C)C)c1C(=O)Nc1ccc(-c2nnc3n2CCCCC3)cc1,-1
COc1ccccc1CNC(=O)CN1C(=O)NC2(CCCC2)C1=O,2

# Sorted by number of heavy atoms (ascending): part of the list above.
SMILES,Mtb betalactam
O=C(COc1ccc(Cl)cc1)N/N=C/c1cccc2cccnc12,92
O=C(COC(=O)c1c(F)cccc1F)Nc1ccc(N2CCCCC2)cc1,5
O=C(C[C@H]1C/C=C\C[C@@H](Cc2ccc(F)cc2)C(=O)OC[C@H]2CCCN2C1=O)NCCO,-4

# (cont.)
SMILES,Mtb betalactam
COC(=O)c1ccc(NC(=S)NC(=O)C2CCC2)cc1,93
COc1cccc(NC(=O)CN(C)CC(=O)c2c(C)[nH]c3ccccc23)c1,-3
Cc1csc2nc(CN3CCN(CC(=O)N(C)C)CC3)cc(=O)n12,-7
CCN1C(=O)C(=O)N(CC(=O)NC(C)CCc2ccccc2)C1=O (stereo not given),-11
CC(Sc1ncn[nH]1)C(=O)c1c(N)n(C)c(=O)n(C)c1=O (stereo not given),-7
COCC(C)n1c(SCC(=O)NC(=O)NCc2ccccc2)nc2ccccc2c1=O (stereo not given),-5
COCCNC(=O)CN(C(=O)CCC(=O)Nc1nccs1)c1ccc2c(c1)OCO2,-7
COc1ccc(CC(=O)OC(C)C(=O)Nc2ccc(Cl)cn2)cc1 (stereo not given),3
Cc1c(C(=O)OCc2nc3ccsc3c(=O)[nH]2)oc2ccccc12,-7
CCCc1nnc(SCC(=O)Nc2ccccc2F)o1,-2
CN1CCN(C2Cc3ccccc3Sc3ccc(Cl)cc32)CC1 (stereo not given),95
C=CCC1CCC/C(=N\NS(=O)(=O)c2ccc(C)cc2)C1 (stereo not given),-8
O=C(CNCc1ccc(F)cc1)Nc1cc(S(=O)(=O)N2CCOCC2)ccc1Cl,-8
C#CCOCCOCCOCCNc1nc(N2CCN(C(=O)[C@H](CCCCN)n3cc(CN)nn3)CC2)nc(N2CCN(C(=O)[C@H](CCCCN)n3cc(CN)nn3)CC2)n1,2
COc1ccc(CC(=O)Nc2ccc(S(=O)(=O)N3CCN(C)CC3)cc2)cc1,-6
COc1ccc(C(=O)NNC(=O)CCc2nc3ccccc3c(=O)[nH]2)cc1,5
N#Cc1ccccc1COC(=O)c1ccc2c(c1)OCO2,4
CC(NC(=O)c1cccc(S(=O)(=O)N2CCc3ccccc32)c1)c1ccco1 (stereo not given),-1
Cc1nnnn1/C(=C\c1ccccc1)C(=O)OCC(=O)Nc1cccc(S(=O)(=O)N(C)C)c1,5
C[C@@H]1O[C@@H](O[C@H]2[C@H](O[C@H]3C[C@]4(C)C(C[C@@H](O)C5C([C@]6(C)CC[C@@H](C(C)(C)O)O6)CC[C@]54C)[C@@]4(C)CC[C@H](O)C(C)(C)C34)O[C@H](CO)[C@@H](O)[C@@H]2O)[C@H](O)[C@H](O)[C@H]1O (stereo not given in full),1
O=C(CSc1nccc(=O)[nH]1)Nc1ccc(Oc2ccccc2)cc1,68
COc1ccc2sc(-c3ccc(SC)cc3)c(C#CC(C)(C)O)c2c1,?
CC1(C)CC(=O)C=C(c2cccc3c2Oc2ccccc2S3)C1,13
O=Cc1ccc(C(=O)OCC(=O)NC(=O)Nc2ccccc2F)cc1,-1
NC1(C#Cc2ccc3oc(=O)c(-n4cc(-c5ccsc5)nn4)cc3c2)CCCCC1,0
Cc1c(NC(=O)c2cc(-c3ccccc3)nc3ccccc23)c(=O)n(-c2ccccc2)n1C,-5
O=C1C=C(c2ccc(Cl)c(C(F)(F)F)c2)C[C@@H](c2ccc(Cl)cc2)C1,21
Cc1ccc(NC(=O)COC(=O)C2CC2)cc1S(=O)(=O)N1CCOCC1,0
N#Cc1ccccc1NC(=O)COC(=O)c1ccc2c(c1)OCO2,0
COc1ccc(C(=O)OCC(=O)N2CCCCCC2)cc1S(=O)(=O)N1CCOCC1,2
Cc1ccc(C(=O)NNC(=O)CSc2nnc3ccccn23)cc1,2
CC1(C)O[C@@H]2[C@H](O1)[C@@H](COS(=O)(=O)O)O[C@H]2n1cnc2c(N)ncnc21,10
COc1ccc(CCNC(=O)COC(=O)Cn2cnc3c2c(=O)n(C)c(=O)n3C)cc1,-3
COC(=O)C1=C(c2cccc(C#N)c2)C[C@@H]2CC[C@H]1N2C(=O)N1CCC(O)CC1,-6
CC1CCCCN1C(=O)COc1ccc(S(=O)(=O)N2CCCC2)cc1[N+](=O)[O-] (stereo not given),1
Cc1noc(C)c1S(=O)(=O)Nc1ccc2c(c1)C(=O)N([C@H](C)CO)C[C@H](C)[C@@H](CN(C)Cc1ccc(C(=O)O)cc1)O2,5
CCCOc1ccc(C(F)(F)F)cc1NC(=O)C1CC(=O)N(Cc2ccco2)C1 (stereo not given),-3
Cc1cccc(C)c1NC(=O)CNC(=O)c1c(-c2ccccc2)noc1C,-9
Cc1ccccc1NC(=O)COC(=O)c1c(-c2ccccc2)noc1C,3
CC(C)(C)OC(=O)C[C@@H]1C/C=C\C[C@H](CC(=O)N(CCO)Cc2ccccc2)C(=O)N[C@H](Cc2ccccc2)COC1=O,-4

# 4 of the compounds above, with each value named.
> CC(C)(C)OC(=O)C[C@@H]1C/C=C\C[C@H](CC(=O)N(CCO)Cc2ccccc2)C(=O)N[C@H](Cc2ccccc2)COC1=O
  Mtb betalactam: -4
> CCOc1ccccc1N1CCN(C(=O)NC(C)c2ccc(F)c(F)c2)CC1 (stereo not given)
  Mtb betalactam: 5
> Cc1nc(SCc2nc3ccc(Br)cc3[nH]2)c2oc3ccccc3c2n1
  Mtb betalactam: 60
> N#Cc1ccccc1NC(=O)COC(=O)c1ccc2c(c1)OCO2
  Mtb betalactam: 0

# Following part.
SMILES,Mtb betalactam
O=P(c1ccccc1)(c1ccccc1)C(O)c1ccc(Br)cc1 (stereo not given),-1
COc1ccccc1C(=O)NC(CCSC)C(=O)NNC(=O)C(C)Oc1ccccc1F (stereo not given),0
Cc1cc(NC(=O)COC(=O)c2cc(S(=O)(=O)N(C)C)ccc2Cl)no1,2
O=C(/C=C/c1ccccc1)OCC(=O)N1CCCC1,0
CS(=O)(=O)c1ccc2nnn(OCC(=O)Nc3cccc(C#N)c3)c2c1,-3
CCC(C)Nc1nc2c(c(=O)[nH]c(=O)n2C)n1CCCc1ccccc1 (stereo not given),-11
O=C(COc1ccc(-n2cnnn2)cc1)Nc1ccc(F)c(F)c1F,11
CCC(NC(=O)c1cc(COc2c(F)cccc2F)on1)c1ccncc1 (stereo not given),?
CC(C)=CCCC(C)CCO (stereo not given),-2
C#CCOCCOCCOCCNc1nc(N2CCN(C(=O)[C@H](CCC(=O)O)n3cc(CN)nn3)CC2)nc(N2CCN(C(=O)[C@H](CCC(=O)O)n3cc(CN)nn3)CC2)n1,0
CSc1ccc(C=NNc2ccc(S(=O)(=O)Nc3ccccc3C(=O)O)cc2[N+](=O)[O-])cc1,45
O=C(NCCCN1CCCC1=O)c1cccc(S(=O)(=O)Nc2ccccc2Cl)c1,3
O=C1C=C(c2cccc3c2oc2ccccc23)C[C@@H](c2ccc(F)cc2)C1,20
COc1ccc(/C=C2\SC(=O)N(CCCC(=O)Nc3cc(Cl)ccc3C(=O)O)C2=O)cc1,0
O=C(NN1CCOCC1)c1ccco1,8
Cc1cc(NC(=O)C(C)Sc2nc(-c3ccccc3)cc(=O)[nH]2)no1 (stereo not given),-2
